GIV Gai3 FP: inhibitors of GIV peptide binding to Galpha-i3, primary screen, biochemical, fluorescence polarization, FITC-GIV GBA peptide, rat Galphai3 | actives 0.42% (n = 210,000) | percent of control (FP), % (no concentration beside the values) | 90 min; active compounds read low; scaled: aluminum fluoride 0%, vehicle 100%;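 active means replicate mean at 85% of control or lower, very high polarization wells dropped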;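 further: wells of about 15 µL received 100 nL stock; the first replicate is given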
Target sequence (P08753 whole entry, looked up): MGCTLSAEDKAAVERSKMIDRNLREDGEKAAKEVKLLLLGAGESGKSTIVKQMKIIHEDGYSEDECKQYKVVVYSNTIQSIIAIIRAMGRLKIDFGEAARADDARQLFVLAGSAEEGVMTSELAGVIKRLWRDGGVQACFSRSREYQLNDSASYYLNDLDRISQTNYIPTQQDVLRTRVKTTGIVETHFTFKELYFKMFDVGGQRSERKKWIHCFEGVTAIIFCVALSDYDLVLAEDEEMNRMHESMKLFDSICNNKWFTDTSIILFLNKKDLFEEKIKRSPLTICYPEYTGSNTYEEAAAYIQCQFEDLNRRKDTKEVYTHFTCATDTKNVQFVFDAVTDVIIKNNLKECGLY
* = called active by the depositor.

GIV Gai3 FP,compound
113,O=C(NCc1cccnc1)C1CCN(S(=O)(=O)c2ccc(-c3noc(C4CC4)n3)cc2)CC1
109,COc1cc2c(cc1OC)C(C)=NC(C)(C)C2
106,Cc1noc(C)c1S(=O)(=O)N1CCC(C(C)C(=O)N2CCC(N3CCCCC3)CC2)CC1 (centres undefined)
114,Cc1cc(N2CCCC2)nc(Nc2ccc(NC(=O)C(C)(C)C)cc2)n1
101,Cc1cccc(Oc2ccc(-c3noc(-c4ccnn4C)n3)cc2)c1
101,O=S(=O)(c1ccc(-c2cnc(C3CC3)o2)s1)N1CCOCC1
107,CCc1ccc(C2=C(C)C(N3CCCN(S(=O)(=O)C(C)C)CC3)=NS2(=O)=O)cc1
109,COc1ccccc1N1CCN(S(=O)(=O)c2cc(-c3nc(C(C)C)cs3)sc2C)CC1
99,CN(C)S(=O)(=O)c1ccc2c(c1)cc(C(=O)NC1CCCC1)n2Cc1ccncc1
107,CNC(=O)N1c2ccccc2CCc2ccccc21
113,CCOC(=O)CC(=O)CSc1nc2sc(C(=O)OCC)c(C)c2c(=O)n1Cc1ccc2c(c1)OCO2
120,CC(=O)N[C@H]1[C@H](Oc2ccccc2C(=O)NCc2ccccc2)O[C@H](COC(C)=O)[C@@H](OC(C)=O)[C@@H]1OC(C)=O
98,O=C(CCc1ccccc1)N1CCN(Cc2cc(=O)n3nc(-c4ccccc4)sc3n2)CC1
109,O=C(c1ccc2ccnc(N3CCN(c4ccccc4)CC3)c2c1)N1CCCCC1
109,N#CC1=C(N)Oc2n[nH]c(-c3ccc(Br)cc3)c2C1c1ccccc1OC(=O)N1CCOCC1 (centres undefined)
108,Cc1ccc(-n2c(=O)c3c4c(sc3n3c(SCC(=O)c5ccccc5)nnc23)COC(C)(C)C4)cc1
101,CC(=O)N[C@H]1[C@H](Oc2cccc3ccccc23)O[C@H](CO)[C@@H](O)[C@@H]1O
104,Cc1ccc(N=C2c3ccccc3-c3ncccc32)cc1
107,Cc1cccc(C)c1NC(=O)C1(N(C)C(=O)c2ccccc2F)CCC(C(C)(C)C)CC1 (centres undefined)
113,CNC1(c2nnnn2-c2cccc(Cl)c2)CCCC1
106,O=C(c1ccsc1)N1CCCn2nc(-c3cccs3)cc2C1
98,CC(=O)N1CCCN(C(=O)NC(C)C)CC1
102,O=C1CN(Cc2ccc(Cl)cc2)S(=O)(=O)c2ccccc2N1Cc1ccccc1F
104,O=C(Nc1ccccc1SCc1nnc(-c2ccccc2)o1)c1ccccc1Cl
104,Cc1cc(-c2csc(S(=O)(=O)N3CCN(c4cc(Cl)ccc4C)CC3)c2)on1
102,CCOC(=O)c1[nH]c(C)c(CN(Cc2ccc(OC)cc2)S(=O)(=O)c2ccccc2)c1C
119,CCOc1ccc(N2C(=O)/C(=C\c3sccc3C)S(=O)(=O)C2c2cccc([N+](=O)[O-])c2)cc1 (centres undefined)
95,Cc1ccc(OC2CCN(S(=O)(=O)C(C)C)CC2)cc1
102,CCCCN1CCN(Cc2nc3nc(C)cc(N4CCOCC4)n3n2)CC1
114,C=C(C)C(=O)Nc1ccc2c(c1)OCCOCCOCCOCCO2

In another format: 2 of the compounds above
molecule: N#CC1=C(N)Oc2n[nH]c(-c3ccc(Br)cc3)c2C1c1ccccc1OC(=O)N1CCOCC1 (centres undefined)
  GIV Gai3 FP = 109

molecule: Cc1ccc(-n2c(=O)c3c4c(sc3n3c(SCC(=O)c5ccccc5)nnc23)COC(C)(C)C4)cc1
  GIV Gai3 FP = 108

Additional results:
GIV Gai3 FP,compound
109,Cn1c(CC(=O)Nc2ccccc2)c(Sc2ccccc2)c2ccccc21
107,Cc1ccc(N2C(=O)C(N3C(=O)c4c(Cl)c(Cl)c(Cl)c(Cl)c4C3=O)C2c2cccc(Br)c2)cc1Cl (centres undefined)
108,CC1(O)N(CCN2C(=O)OC3(CCCCC3)C2(C)O)C(=O)OC12CCCCC2 (centres undefined)
99,CCCOc1ccccc1C1Nc2ccc(C)cc2[C@H]2OCCC[C@@H]12 (some centres undefined)
99,CS(=O)(=O)N1CC(C(=O)NC2CCCCC2)Oc2ccccc21 (centres undefined)
117,Clc1ccccc1CSc1nnc2c(n1)-c1cccc3cccc-2c13
104,Cc1nc(-c2ccc3c(c2)n(CC(=O)N2CCc4ccccc42)c(=O)n3C(C)C)no1
100,Cc1sc2ncn(CC(=O)NCC(=O)N3CCN(c4ccccn4)CC3)c(=O)c2c1C
102,Cc1ccc(-c2noc(-c3ccccc3S(=O)(=O)N3CCCCC3C)n2)cc1 (centres undefined)
101,Cc1sc(-c2noc(C(=O)N3CCCC3)n2)cc1S(=O)(=O)NCCC1=CCCCC1
99,COc1ccc(C2/C(=C(\O)c3ccccc3)C(=O)C(=O)N2CCCN2CCOCC2)cc1 (centres undefined)
109,Cc1ccccc1CC(Cc1nc2ccccc2[nH]1)c1nc2ccccc2[nH]1 (centres undefined)
110,O=C(Cn1c(=O)n(C2CC2)c(=O)c2nscc21)NCc1ccco1
102,O=C1CSC(c2ccc(Br)cc2)N1c1ccccn1 (centres undefined)
111,Cc1ccc(C(=O)Nc2ccc3c4c2C2C=CCC2CN4CC2CC=CC32)cc1 (centres undefined)
109,COc1cc(OC)c(NC(=O)Nc2nnc(CC(=O)N3CCOCC3)s2)cc1Cl
111,CCN(CC)S(=O)(=O)c1ccc(C(=O)Nc2c3c(nn2-c2cccc(C)c2C)CS(=O)(=O)C3)cc1
120,CCCn1c(CCc2ccc(NS(=O)(=O)c3ccccc3)cc2)nc2ccccc21
100,COc1ccc2c(c1)=C(c1sc(NS(=O)(=O)c3ccc(C)cc3)nc1O)C(=O)N=2
117,COc1cc(/C=C2/N=C(c3ccc(Br)cc3)OC2=O)cc(OC)c1OC
106,COc1ccccc1Oc1cc(-c2cccc(C(=O)NCc3ccc(Cl)cc3)c2)ncn1
102,Cc1ccc(N2CCN(c3ccc(C)cc3)C2c2cc(Cl)cc(Cl)c2O)cc1
105,COCCNC(=O)c1ccc2nc(-c3cccc(C)c3)c(-c3cccc(C)c3)nc2c1
110,CCCCOc1nc(N2CCOCC2)nc(N2CCOCC2)n1
108,Clc1ccc(-c2cc(-c3nc(-c4ccncc4)no3)c3ccccc3n2)cc1
106,O=C1CC(c2cccc(Br)c2)c2cnn(-c3ccc(F)cc3)c2N1 (centres undefined)
103,CC(=O)Nc1ccc(S(=O)(=O)N2CCN(c3ncnc4c3nnn4-c3ccccc3)CC2)cc1
99,COc1ccc(CN2CCCC2c2cc(C)on2)cc1CN1CCOCC1 (centres undefined)
208,COCCCN1C(=O)/C(=C\c2c(N3CC(C)OC(C)C3)nc3c(C)cccn3c2=O)SC1=S (centres undefined)
102,Cc1ccc2c(c1)N(C(=O)CSC1=NS(=O)(=O)c3ccccc3N1)CCO2
110,CCOc1ccc2c(c1)C(=C1SC(C(=O)OC)=C(C(=O)OC)S1)C(=S)C(C)(C)N2C(=O)c1ccccc1Cl
104,O=C(Cn1c2ccccc2c2ncn(Cc3nc(C4CC4)no3)c(=O)c21)NC1CCCCC1
101,Cc1sc2ncnc(SCC(=O)Nc3ccc(Br)cc3)c2c1C
101,CCOC(=O)c1c(CSc2ccccc2)n(C2CCCCC2)c2cc(Br)c(O)c(CN(C)C)c12
114,COc1ccc(NC(=O)CSC2=C(C#N)C(c3cccs3)C3=C(CCCC3=O)N2)cc1 (centres undefined)
103,COc1ccccc1NC(=O)N1CCCN(c2nc3cccnc3s2)CC1
97,COc1ccc(CN2CCCC2c2cc(C(C)C)no2)c(O)c1 (centres undefined)
105,CC(C)n1c(N2CCCN(C(=O)C3CCC(=O)N3)CC2)cc(=O)n(C(C)C)c1=O (centres undefined)
106,CC(=O)N1CCC(C(=O)NCc2ccccc2)(N(Cc2cccc(Cl)c2)C(=O)c2ccc(C)cc2)CC1
121,c1ccc(C2=NN(c3ccccc3)C(c3ccccc3)=C(c3ccccc3)S2)cc1
106,CCOC(=O)c1ccc(Cn2c3ccc(OC(F)(F)F)cc3c3nc4ccccc4nc32)o1
107,O=C(c1ccc(NCc2ccc(F)cc2)c(S(=O)(=O)Nc2cccc(C(F)(F)F)c2)c1)N1CCCC1
118,O=C(NN1S(=O)(=O)c2ccccc2S1(=O)=O)c1ccc(OCc2ccc(F)cc2)cc1
109,COc1ccc(OC)c(CN2CCCC2c2cc(C(C)C)on2)c1 (centres undefined)
106,Cc1nn(-c2ccc(-c3ccccc3)nn2)c(C)c1S(=O)(=O)NCc1ccc(F)cc1
100,CN1CCN(C(=O)c2n[nH]c3c2CCCC3)CC1
108,NC(=O)C1CCN(C(=O)c2ccc3c(=O)n(-c4ccc(F)cc4)c(SCC(=O)N4CCCC4)nc3c2)CC1
102,Cn1c(=O)n(C)c2cc(NC3=C(C(=O)N4CCOCC4)S(=O)(=O)c4ccccc43)ccc21
100,COc1ccccc1CNC(=O)c1cnn2c(C)c(Cc3cccc(Br)c3)c(C)nc12
97,O=C(NCc1c(-c2ccc(F)cc2)nc2n1CCS2)c1ccc(F)cc1F
103,COc1ccccc1NC(=O)CN(C)S(=O)(=O)c1cc2c(cc1C)NC(=O)CO2
101,Cc1c(C(=O)N2CCC(C(N)=O)CC2)sc2ncn(CC(=O)Nc3cccc(C(F)(F)F)c3)c(=O)c12
103,CC1=C(C(=O)OCc2ccccc2)C(c2cccc([N+](=O)[O-])c2)C2=C(CC(c3cccs3)CC2=O)N1 (centres undefined)
109,CCOC(=O)c1[nH]c(C)c(CCC(=O)Nc2cc(C)on2)c1C
99,Cc1cc(-c2c(-c3ccc4ccccc4c3)[nH]c3c2c(=O)n(C)c(=O)n3C)c(C)s1
106,Cc1ccc(CNS(=O)(=O)c2c(C)[nH]c(-c3nnc(C4CCC4)o3)c2C)o1
104,Cc1ccc(-c2nnc(-c3cccc(S(N)(=O)=O)c3)o2)cc1
97,CCc1nnc(-c2cc(NC(=O)C3CCN(C(C)=O)CC3)c(C)s2)o1
101,COc1ccc(Oc2c(C(F)(F)F)oc3c(CN4CCN(C)CC4)c(O)ccc3c2=O)cc1
109,Cc1nc(N2CCOCC2)c2c(C)c(C(=O)NC(C)c3ccccc3)sc2n1 (centres undefined)

In another format: two of the compounds above.
SMILES	GIV Gai3 FP
Cn1c(=O)n(C)c2cc(NC3=C(C(=O)N4CCOCC4)S(=O)(=O)c4ccccc43)ccc21	102
CC(=O)N1CCC(C(=O)NCc2ccccc2)(N(Cc2cccc(Cl)c2)C(=O)c2ccc(C)cc2)CC1	106

Taken from the listing, 2 compounds:
GIV Gai3 FP,compound
101,COc1ccc(Oc2c(C(F)(F)F)oc3c(CN4CCN(C)CC4)c(O)ccc3c2=O)cc1
109,Cc1nc(N2CCOCC2)c2c(C)c(C(=O)NC(C)c3ccccc3)sc2n1 (centres undefined)

New compounds follow:
GIV Gai3 FP,compound
105,Cc1cccc(Cn2nc3c(S(=O)(=O)N4CCCC4)cccn3c2=O)c1
99,CCOC(=O)c1ccccc1NC(=O)CSc1nc2c(=O)n(C)c(=O)n(C)c2n1C
110,CCOc1ccc(N2CC(O)(c3ccccc3)[N+]3=C2CCCC3)cc1 (centres undefined)
102,CC(C)c1ccc(C(=O)Nc2nc3c(s2)CN(S(=O)(=O)c2ccccc2)CC3)cc1
102,Cc1cc(Sc2ccc(NC(=O)Nc3ccc(Cl)cc3)cc2)n2ncnc2n1

7 entries out of the list, ordered by formula weight, largest number first.
GIV Gai3 FP,compound
101,COc1ccc(Oc2c(C(F)(F)F)oc3c(CN4CCN(C)CC4)c(O)ccc3c2=O)cc1
99,CCOC(=O)c1ccccc1NC(=O)CSc1nc2c(=O)n(C)c(=O)n(C)c2n1C
102,Cc1cc(Sc2ccc(NC(=O)Nc3ccc(Cl)cc3)cc2)n2ncnc2n1
105,Cc1cccc(Cn2nc3c(S(=O)(=O)N4CCCC4)cccn3c2=O)c1
97,CCc1nnc(-c2cc(NC(=O)C3CCN(C(C)=O)CC3)c(C)s2)o1
110,CCOc1ccc(N2CC(O)(c3ccccc3)[N+]3=C2CCCC3)cc1 (centres undefined)
104,Cc1ccc(-c2nnc(-c3cccc(S(N)(=O)=O)c3)o2)cc1

Not all compounds are listed; count on the stated rates, not on these rows.
